Screens deposited in PubChem by National Center for Advancing Translational Sciences (NCATS).
ClpP mod: qHTS Assay for Activators of ClpP. ATP-dependent Clp protease proteolytic subunit (Bacillus subtilis (strain 168)), P80244. purified B. subtilis ClpP, FRET peptide cleavage, 20 min. Potency, µM (titrated, usually from 57.5 µM), for inactives: at the highest dose activity change, negative = active. 340,000 tested, 1.9% active. AID 651965, 2013; active = well fitted falling curve with a large enough effect; inconclusive = small, poorly fitted or top-dose-only effect; inactive = no such curve, though single readings can be large or run the other way; also: potency is read from the fitted curve at half-maximal effect; the source files actives as falling curves though it sought activators and does not explain the sign; nearly all actives have a fitted effect of over 65% in size; many hits overshoot -100%
Target sequence (P80244 whole entry, looked up): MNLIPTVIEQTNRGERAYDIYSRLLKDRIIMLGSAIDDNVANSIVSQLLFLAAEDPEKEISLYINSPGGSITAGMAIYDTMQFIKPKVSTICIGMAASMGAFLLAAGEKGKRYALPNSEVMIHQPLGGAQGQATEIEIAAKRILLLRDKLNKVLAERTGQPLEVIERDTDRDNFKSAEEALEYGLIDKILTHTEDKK
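FRET quenching reversal measured ClpP activation: 10 microg/mL B. subtilis ClpP at pH 8 with the FRET-FV decapeptide, read at 430 nm after 320 nm excitation. The 20-min minus 0-min signal was scaled between DMSO/no-enzyme wells and ADEP (5.8 microM final).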
gsp agonist: qHTS for Agonist of gsp, the Etiologic Mutation Responsible for Fibrous Dysplasia/McCune-Albright Syndrome: qHTS | gsp mutant cells, cAMP HTRF, 30 min; control for the full effect not named in the record | Potency, µM (series often up to 76.9 µM), without a hit: at the top dose activation (cAMP increase), usual class: activators | 340,000 tested, 0.13% active; active = well fitted activation curve with a large enough effect; inconclusive = small, poorly fitted or top-dose-only effect, or another doubt; inactive = no such curve, though single readings can be large or run the other way; cell line not stated here;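 also: phosphodiesterase inhibitor Ro 20-1724 added with compounds to block cAMP breakdown; potency is read from the fitted curve at half-maximal effect; nearly all actives have a fitted effect of over 60% in size; about a fifth of the inactives were tested at one dose only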
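Cells in DMEM/10% FBS with G418 were pretreated with compounds in DMSO plus […] (300 uM stock) for 30 min at 37C. cAMP was measured by HTRF (cAMP-d2 plus anti-cAMP antibody-K) after 30 min at room temperature.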
PINK1 modulator: A Quantitative High throughput Screen to Identify Chemical Modulators of PINK1 Expression; PINK1 immunofluorescence, high-content cytometry, 24 h; Potency, µM (highest dose often 76.6 µM), for inactives: at the highest dose activation (PINK1 increase), most hits filed as activators; 410,000 tested, 0.2% active; AID 624263, 2012; active = well fitted activation curve with a large enough effect; inconclusive = small, poorly fitted or top-dose-only effect; inactive = flat fitted curve, though single readings scatter; cell line not stated here;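 also: potency is read from the fitted curve at half-maximal effect; % of control where 0% means no effect; nearly all actives have a fitted effect of over 65% in size; a mitochondrial uncoupler was the plate control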
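Measures PINK1 amount and localization on or inside mitochondria by immunofluorescence. Stable cells get compounds at 5 concentrations for 24 hours before fixation and staining; CCCP controls included.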
gsp antag: qHTS for Antagonists of gsp, the Etiologic Mutation Responsible for Fibrous Dysplasia/McCune-Albright Syndrome: qHTS. gsp-mutant cells, cAMP HTRF, 30 min; control for the full effect not named in the record. Potency, µM (series often up to 76.9 µM), inactives show at the top dose activity change, negative = inhibition, most hits filed as inhibitors. 340,000 tested, 0.4% active; active = falling curve of any shape with a large fitted effect; inconclusive = falling curve, mostly with a smaller effect; inactive = flat or rising curve; cell line not stated here;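 also: intracellular cAMP measured with PDE inhibitor Ro 20-1724 present during compound exposure; potency is read from the fitted curve at half-maximal effect; % is scaled to controls: 0 for no effect and ±100 for the full control effect; nearly all actives have a fitted effect of over 65% in size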
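G418-selected cells were plated in DMEM/10% FBS for 16-24 h at 37C, then treated with compounds plus the PDE inhibitor […] (300 uM solution added) for 30 min at 37C. Intracellular cAMP was measured by HTRF after 30 min lysis at room temperature.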
D2 ag: Beta-Arrestin HTS for Positive Allosteric Modulators of the Human D2 Dopamine Receptor: Agonists; 360,000 tested, 0.084% active; activation, % (no concentration beside the values); AID 624465, 2012; D(2) dopamine receptor (Homo sapiens), P14416; DiscoveRx PathHunter D2 beta-arrestin, luminescence, 90 min; 100% = 57 uM dopamine signal; in the data active = activation above about 40%; inconclusive = about 15% to 40%; inactive = below about 15%; also: compound concentration not given in the record; the text of the record calls up to 30% inactive
Target sequence (P14416 whole entry, looked up): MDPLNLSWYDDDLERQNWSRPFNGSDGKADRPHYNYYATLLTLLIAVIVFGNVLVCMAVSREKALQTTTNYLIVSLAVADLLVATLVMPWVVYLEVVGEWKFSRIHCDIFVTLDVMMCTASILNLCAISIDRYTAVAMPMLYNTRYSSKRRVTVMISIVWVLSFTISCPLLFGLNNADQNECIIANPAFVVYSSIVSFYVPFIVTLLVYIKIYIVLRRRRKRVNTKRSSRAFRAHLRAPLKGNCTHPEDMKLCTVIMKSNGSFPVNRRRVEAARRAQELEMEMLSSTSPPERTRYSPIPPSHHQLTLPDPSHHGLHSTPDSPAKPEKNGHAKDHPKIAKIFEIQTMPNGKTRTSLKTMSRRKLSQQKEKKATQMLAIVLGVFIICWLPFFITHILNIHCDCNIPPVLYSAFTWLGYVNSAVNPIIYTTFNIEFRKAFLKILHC
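Agonist mode: compounds alone added to overnight-plated D2 PathHunter cells for 90 min at 37 C, with 57 uM final dopamine (EC100) defining full response. Beta-arrestin recruitment detected by chemiluminescent reagent, read after 1 h at ambient temperature.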
Sfp inh: qHTS Assay for Inhibitors of Bacillus subtilis Sfp phosphopantetheinyl transferase (PPTase); 4'-phosphopantetheinyl transferase ffp (Bacillus subtilis), Q9F4F7; Biochemical Sfp PPTase activity, qHTS; Potency, µM, without a hit: max response, negative = inhibition, actives largely listed as inhibitors; 310,000 tested, 3.5% active; AID 1490, 2009; active = well fitted inhibition curve with a large enough effect; inconclusive = small, poorly fitted or top-dose-only effect, or another doubt; inactive = no such curve, though single readings can be large or run the other way;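 also: the enzyme is Sfp with the accession as filed and its product quenches rhodamine fluorescence; potency is read from the fitted curve at half-maximal effect; 0% = enzyme reaction without inhibitor and -100% = no enzyme wells; top concentration of the series not given in the record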
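Fluorescence-quenching assay: 15 nM Sfp-PPTase preincubated 15 min at room temperature with compound, then 5 uM rhodamine-CoA and 12.5 uM BHQ-2-labelled YbbR peptide added. Fluorescence (ex 525/em 598 nm) read at start and after 30 min; difference gives rate.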
Menin MLL FP FL: qHTS Assay for Inhibitors Targeting the Menin-MLL Interaction in MLL Related Leukemias: Competition With Fluorescein Labeled MLL-derived Peptide. Fluorescence polarization, fluorescein-MLL peptide displacement from menin. FP activity change, % at 61.4 µM. 290,000 tested, under 10 active. AID 1766, 2009; inconclusive = falling polarisation curve, or a change in total fluorescence; inactive = total fluorescence flat and polarisation flat or rising; no compound was filed as active; the % refers to the polarisation; negative = inhibition;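 also: % of control where 0% means no effect; inhibitors lower the polarisation; unlabelled MLL peptide was the positive control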
* = called active by the depositor; ? = inconclusive; / = no result given; & = joins results of further samples; [ ] = another dose, or the depositor's remark.

Order of results – ClpP mod | gsp agonist | PINK1 modulator | gsp antag | D2 ag | Sfp inh | Menin MLL FP FL
CCCCn1nnnc1C(CC)N1CCC2(CC1)C(=O)NCN2c1ccccc1 (configuration not stated)
 : -1.4% | / | 0.9% | / | -4.9 | / | /
Cn1cccc1/C=C1/C(=O)NC(=O)N(C(C)(C)C)C1=O
 : / | 0%[15.4 µM] | -0.2% | -5% | -1.3 | -20% | 3.9
Nn1c(COc2ccc(Cl)cc2)n[nH]c1=S
 : -2.7% | -36%[inhibitor] | 0.5% | -1% | 9.0 | 35µM* | -1.6
COc1cc(NC(=O)CN2C3CCC2CC(O)(c2cccnc2)C3)cc(OC)c1 (configuration not stated)
 : -0.4% | -16% | 0.4% | 3% | -2.2 | 10% | 3.8
CCOC(=O)N(CC)c1ccc(C(O)(C(=O)OCC)C(F)(F)F)cc1 (configuration not stated)
 : 1.0% | -4% | -0.4% | 25% | -2.4 | 11% | 4.8
O=C(Cc1ccccc1)Oc1cccc(-n2cnnn2)c1
 : / | 10%[15.4 µM] | 2.9% | 0% | 0.0 | 5% | 0.5
C[C@H]1COC2=C1C(=O)C(=O)c1c2ccc2c1CCCC2(C)C
 : -8.9% | / | 0.1% | -30% | 2.7 | -2%&-24% | -1.7&-3.3
COc1cccc(-c2nn(Cc3ccccc3)cc2C(=O)O)c1
 : / | -4%[15.4 µM] | 0.0% | -4% | -3.7 | 4% | 1.7
O=Cc1ccc(O)c(O)c1
 : -1.1% | / | 0.4% | -2% | 4.7 | 32µM* | 2.3
COP(=O)(OC)C(NC(=O)/C=C/c1ccccc1)C(Cl)(Cl)Cl (configuration not stated)
 : / | 2%[15.4 µM] | -0.8% | 6% | 1.7 | -6% | -4.2
CCCN(CC#CCOc1ccc(OC)cc1)CCC
 : 2.2% | 19% | 0.7% | 1% | -1.7 | -25% | 0.7
CC(=O)OC1CCC2(C)C(CCC3C2CC(=O)C2(C)C3CC(N3CC3)C2C(C)=O)C1 (configuration not stated)
 : -2.7% | -15% | 0.3% | -2% | 1.4 | / | /
Cc1ccsc1C(=O)C1CCCN(Cc2cnc(N)nc2)C1 (configuration not stated)
 : -4.8% | ? | 1.9% | -12% | -5.1 | -3% | 4.5
Cc1c(C(c2ccc(O)cc2)c2c(O)c3ccccc3oc2=O)c(=O)n(-c2ccccc2)n1C (configuration not stated)
 : -1.4%&-3.6% | -4% | 1.1%&1.2% | 8% | -0.6 | -3% | -0.7
COc1cc(C2c3cc(O)c(OC)cc3CC3C(=O)OCC32)ccc1O (configuration not stated)
 : -1.0% | / | 1.3% | -10% | 6.4 | / | /
COc1cccc(C(=O)C2CCCN(Cc3ccon3)C2)c1 (configuration not stated)
 : / | -1% | -1.4% | 5% | 3.7 | 17% | 5.9
COC(=O)C1=C(c2ccc(S(C)(=O)=O)cc2)C[C@@H]2CC[C@H]1N2C(=O)N1CCCCC1
 : -1.4% | -20% | -0.3% | 1% | -8.2 | / | /
CCc1cc2c(cc1-c1csc(C/C(N)=N/O)n1)C(C)(C)CCC2(C)C
 : -1.3% | ? | -0.9% | / | -11 | / | /
O=c1[nH]c(=O)n(Cc2ccco2)c(O)c1C=NCCN1CCOCC1
 : -0.1% | 5% | 1.0% | 2% | -0.6 | -17% | ?
Cc1ccc([C@H]2C[C@@H](n3cc(C4CC4)nn3)[C@H](O)CN2Cc2cccs2)cc1
 : -5.5% | -61%[inhibitor] | 1.3% | / | -1.5 | / | /
Cc1ccc(-n2c(O)c(C=NCC3CCCO3)c(=O)[nH]c2=O)c(C)c1 (configuration not stated)
 : / | 3% | 1.4% | 6% | -0.7 | -5% | ?
C[C@]12CC[C@H](N)CC1=CCC1C2CC[C@@]2(C)C1CC[C@@H]2O (some centres not stated)
 : / | ? | -3.0% | 13% | -6.8 | / | /
CC(C)CNP(=S)(c1ccccc1)C(C)(C)C (configuration not stated)
 : -0.3% | ? | 3.3% | 14% | 3.9 | -3% | 6.6
CN(CC(=O)Nc1ccccc1-c1ccccc1)C1CCCCC1
 : -0.3% | 0% | 21% | -12% | -3.9 | 3% | -3.4
CC1CC2(C)C(=CC1=O)CCC1C3CCC(C)(O)C3(C)CC3OC312 (configuration not stated)
 : / | -6% | -2.6% | -1% | -3.0 | / | /
Cc1c(C=O)c2ccccc2n1Cc1cccc(F)c1
 : 1.4% | 0% | 8.5% | -9% | -0.9 | -2% | -1.0
CN(C)C(=O)Oc1ccc(Cl)c2cccnc12
 : / | 0%[15.4 µM] | 2.3% | 10% | -3.2 | 24% | 0.5
O=C1N(c2cccc(Cl)c2)C(c2cccnc2)N2CCCN12 (configuration not stated)
 : / | ? | -1.7% | 6% | 2.2 | -4% | -0.3
CCC(=O)N1CC(=O)Nc2ccc(F)cc2C1c1ccc(F)cc1 (configuration not stated)
 : 1.6% | 2%[15.4 µM] | 1.2% | 7% | -2.0 | 12% | -2.5
Cc1c(N)c(C)c([N+](=O)[O-])c(C)c1[N+](=O)[O-]
 : 1.6% | -19% | -2.0% | 0% | 7.7 | 16% | -5.1
Cc1nn(Cc2ccccc2Cl)c(C)c1C(=O)OCC(=O)N1CC(C)OC(C)C1 (configuration not stated)
 : 0.7% | -22% | 0.8% | 7% | -2.0 | 7% | -1.5
COc1ccc(-c2cc(NC=O)c3ncc(-c4cc(OC)c(OC)c(OC)c4)n3c2)c(OC)c1
 : ? | / | 2.6% | / | 5.7 | / | /
CN1CCN(c2ccc(F)cc2N)CC1
 : / | -11%[15.4 µM] | 1.6% | 12% | -5.9 | 13% | -1.7
NNC(=O)c1ccc(O)cc1
 : 0.0% | 5% | -0.5% | 6% | -1.9 | / | 8.7
CC(=O)Nc1ccccc1OP1(=O)COc2ccccc2OC1
 : -1.6% | ? | -2.6% | 11% | 2.1 | 11% | 2.0
CS(=O)(=O)N1CCCC(C(=O)N2CCC3(CC2)OCCO3)C1 (configuration not stated)
 : 0.3% | -4% | 0.8%[38.3 µM] | 9% | -0.9 | 24% | -1.5
CCC(C)C1NC(=O)C(NC(=O)C(CC(C)C)N(C)C(=O)C2CCCN2C(=O)C(C)O)C(C)OC(=O)C(Cc2ccc(OC)cc2)N(C)C(=O)C2CCCN2C(=O)C(CC(C)C)NC(=O)[C@H](C)C(=O)[C@H](C(C)C)OC(=O)CC1O (some centres not stated)
 : 5.4% | -27% | -6.2% | -12% | -5.3 | / | /
O=C(C1CC(=O)N(C2CCCCCCC2)C1)N1CCC2(CC1)OCCO2 (configuration not stated)
 : 0.4% | -26% | ? | -2% | -2.2 | -4% | 0.2
CC(=O)CC1CCCCN1 (configuration not stated)
 : / | / | 1.4% | / | / | 13% | -18
CC(C)CCOP(=O)(c1ccc(N(C)C)cc1)C(O)c1ccc(Cl)cc1Cl (configuration not stated)
 : / | 6% | -3.7% | -5% | 40* | ? | -0.5
OC1/C(=C/c2ccc(F)cc2)N2CCC1CC2 (configuration not stated)
 : -1.9% | -34%[inhibitor] | 1.0% | 8% | 3.7 | 6% | 0.1
Nc1ccccc1Cl
 : -2.2% | / | 1.4% | 2% | 1.4 | / | /
C[C@H](NC(=O)N1C[C@H]2C[C@@H](C1)c1cccc(=O)n1C2)C(=O)Nc1ccccc1F
 : -6.5% | / | 0.3% | 6% | -3.4 | 13% | 1.1
c1cc2c(c(NC3=NCCCS3)c1)CCCC2
 : 0.4% | -34%[inhibitor] | 2.3% | / | 9.7 | / | /
C/C(=N\NC(=O)c1ccncc1)c1c(O)[nH]c(=O)[nH]c1=O
 : 2.5% | -45%[inhibitor] | 1.2% | 11% | 1.4 | / | /
Cc1cc(Cl)ccc1OCCCC(=O)NCc1cccs1
 : -2.8% | -41%[inhibitor] | ? | -1% | -3.2 | 7% | 8.8
c1ccc(C(c2ccccc2)N2CCN(c3ccc4ccccc4n3)CC2)cc1
 : 18µM* | 10% | 0.4% | 1% | -3.8 | 2% | -0.8
CCN(C(=O)COC(=O)C(O)(c1ccccc1)c1ccccc1)c1c(N)n(Cc2ccccc2)c(=O)[nH]c1=O
 : / | -3%[15.4 µM] | -3.4% | 9% | -4.5 | / | /
Cc1nn(CC(=O)N2CCC3(CC2)OCCO3)c(=O)c2cc3ccccc3n12
 : 3.5% | ? | 4.1% | 1% | -1.1 | 20% | 0.9
COc1ccc(C(=O)C2CCCN(Cc3ccon3)C2)cc1OC (configuration not stated)
 : / | 4% | -1.6% | 10% | -3.6 | 2% | -1.2
Cc1cc(NCCN)nc2ccccc12
 : ? | -7% | -3.8% | -3% | -5.7 | 2% | 0.2
Cc1ccccc1C(=O)NC(Oc1ccccc1)C(Cl)(Cl)Cl (configuration not stated)
 : -1.2% | 13%[15.4 µM] | 11% | -22% | 0.8 | 12% | 0.9
O=C(O)c1ccc(-n2c(O)c(/C=C3\C=Nc4ccccc43)c(=O)[nH]c2=O)cc1
 : / | ? | 0.8% | 11% | -4.4 | -4% | 21
Cc1ccc(OC(=O)N(C)C[C@@H]2OCc3cnnn3CCCC(=O)N([C@@H](C)CO)C[C@@H]2C)cc1
 : -1.2% | ? | -2.1% | / | -4.7 | / | /
CCc1c(C)nc(N)nc1N1N=C1SCC(N)=O
 : -1.2% | -33%[inhibitor] | -2.1% | 3% | -1.5 | 0% | -0.5

A portion of the library; rates above refer to the full screens.
